Assay outcomes as filed in PubChem.
miR-21 reporter: qHTS Assay for Modulators of miRNAs and/orActivators of miR-21; HeLa miR-21 FLuc reporter, luciferase, 48 h; Potency, µM (series often up to 38.3 µM), for inactives: at the top dose reporter change, positive = more light; 340,000 tested, under 10 active; AID 2288, 2010; active = well fitted rising curve with a large enough effect; inconclusive = small, poorly fitted or top-dose-only effect; inactive = no such curve, though single readings can be large or run the other way;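 also: % of control where 0% means no effect; miR-21 action dims this reporter so a rising signal means less miR-21 action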
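Using DMEM plus 10% FBS, HeLa miR-21-FLuc cells are incubated with test compounds (final up to about 40uM) for 48 hours; firefly luciferase signal is then imaged following reagent-mediated lysis.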
Rango dissoc inh: qHTS Assay for Inhibitors of RanGTP induced Rango (Ran-regulated importin-beta cargo) - Importin beta complex dissociation; Biochemical FRET Rango-importin beta, RanGTP-induced dissociation; Potency, µM (titrated, usually from 46.1 µM), for the others: at the top dose activity change, negative = inhibition; 340,000 compounds, 0.071% hits; AID 540253, 2011; active means falling FRET ratio curve, often poorly fitted, with flat reads before Ran was added; inconclusive means other falling curves, or compound fluorescence or quenching; inactive means flat or rising ratio curve;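 also: potency is read from the fitted curve at half-maximal effect; % of control where 0% means no effect; nearly all actives have a fitted effect of over 45% in size; -100% = wells without RanGTP and RCC1; the record marks most hits as doubtful in a second field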
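Rango FRET biosensor (snurportin-1 IBB flanked by N-terminal EYFP and C-terminal CFP10) at 0.1 uM, with 0.25 uM importin beta in PBS, 1mM DTT, 0.02% Tween-20, 0.1% BSA. 0.6 uM Ran, 2mM GTP and 0.2 uM RCC1 were then added for 45 min at room temperature. Inhibition read as loss of FRET rise.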
Rango complex inh: qHTS Assay for Inhibitors of Rango (Ran-regulated importin-beta cargo) - Importin beta complex formation; Rango CFP/YFP FRET sensor + importin beta, 45 min; Potency, µM (doses to about 92.2 µM), for inactives: at the top dose inhibition of complex formation; 340,000 compounds, 0.031% hits; active = rising FRET ratio curve, often small or poorly fitted; inconclusive = mostly compound fluorescence or quenching in the first reads; inactive = flat curves in all reads;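 also: potency is read from the fitted curve at half-maximal effect; 0% = DMSO wells and 100% = buffer wells lacking importin beta; nearly all actives have a fitted effect of over 15% in size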
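FRET biosensor (snurportin 1 IBB flanked by EYFP and cerulean), 50 nM, with compound 5 min, then 0.125 microM importin beta in PBS, 1 mM DTT, 0.02% Tween-20, 0.1% BSA. CFP/YFP ratio read after 45 min at room temperature; pre-read flags interference.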
GLA inh pH 4.5: qHTS Assay for Inhibitors of Human alpha-Galactosidase at pH 4.5 | purified enzyme, 4-MU-alpha-Gal fluorescence, pH 4.5 | activity change, negative = inhibition, % at 105 µM | 230,000 tested, under 10 active | AID 1467, 2008; inconclusive = small, poorly fitted or top-dose-only inhibition, or a rising curve; inactive = flat fitted curve, though single readings scatter; no compound was filed as active;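 also: 0% = full activity with enzyme and -100% = basal without enzyme; dose as in the result columns while the protocol names 77 µM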
Target sequence (P06280 whole entry, looked up): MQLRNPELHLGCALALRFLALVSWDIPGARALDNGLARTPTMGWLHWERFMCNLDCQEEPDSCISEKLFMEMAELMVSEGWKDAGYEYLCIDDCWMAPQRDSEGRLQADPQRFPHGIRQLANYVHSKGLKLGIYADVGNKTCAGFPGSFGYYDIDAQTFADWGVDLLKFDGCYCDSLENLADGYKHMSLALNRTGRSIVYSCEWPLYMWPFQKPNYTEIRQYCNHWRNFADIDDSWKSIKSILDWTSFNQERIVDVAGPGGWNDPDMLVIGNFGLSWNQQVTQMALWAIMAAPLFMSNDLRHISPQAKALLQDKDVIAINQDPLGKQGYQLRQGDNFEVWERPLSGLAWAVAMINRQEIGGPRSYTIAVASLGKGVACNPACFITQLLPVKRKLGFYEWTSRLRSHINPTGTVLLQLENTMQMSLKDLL
Numbers without * were called inactive; ? = inconclusive; nt = not tested or not shown; & = joins results of further samples. This is a subset. The share of hits here may be higher or lower than overall.

miR-21 reporter	Rango dissoc inh	Rango complex inh	GLA inh pH 4.5	canonical_smiles
0%	2%	0.8%	-1	O=C(COc1ccc(S(=O)(=O)NC2CCCCC2)cc1Cl)NCc1ccc2c(c1)OCO2
nt	-6%	3.2%	nt	O=C1NC(=O)C(=Cc2ccco2)S1
12%	-4%	?	nt	Cc1ccccc1C1c2[nH]c3ccccc3c2C[C@H]2C(=O)N(c3ccccc3C(=O)NCCCN3CCOCC3)C(=O)N12 (stereo partly specified)
nt	4%	-0.9%	nt	CCOC(=O)[C@@H]1[C@H]2COc3ccc(Br)cc3[C@@H]2N2C(=O)N(c3ccc(OC)cc3)C(=O)[C@@]12C
nt	1%	0.2%	nt	Cc1ccc(S(=O)(=O)NCCC(=O)NCC(c2cccs2)N(C)C)cc1 (stereo unspecified)
nt	-7%	-4.2%	nt	CCOC(=O)[C@@H]1[C@H]2COc3cc(OC)ccc3[C@@H]2N2C(=O)N(c3ccc(Cl)cc3)C(=O)[C@]12C
0%	-17%	1.6%	nt	CC(NC(=O)c1ccccc1Br)c1nnc(SCC(=O)NC2CCCCC2)n1C (stereo unspecified)
nt	-16%	-3.4%	nt	CN1C(=O)N(CC(=O)Nc2sccc2C(N)=O)C(=O)C12CCCCC2
-15%	-6%	?	-3	NS(=O)(=O)c1ccc(CCNc2nc(CN3CCCCC3)nc3sc4c(c23)CCC4)cc1
-1%	-5%	2.8%	nt	CCOC(=O)N1CCN(C(=O)c2ccc3c(=O)n(CCc4ccc(OC)c(OC)c4)c(=O)[nH]c3c2)CC1
-6%	-11%	-5.1%	2	Cn1c(N)c(C#N)c2c(c1=S)CSC(C)(C)C2
0%	2%	3.4%	14	CCOC(=O)Cn1c(=O)oc2ccc(C)cc21

(more compounds)
miR-21 reporter	Rango dissoc inh	Rango complex inh	GLA inh pH 4.5	canonical_smiles
-8%	0%	3.0%	3	O=C(Nc1ccc(Cl)cc1F)c1cc(S(=O)(=O)N2CCCCC2)ccc1F
nt	-1%	-1.4%	nt	COc1ccccc1-c1nn(Cc2ccccc2)cc1C(=O)NCC(c1ccco1)N1CCCC1 (stereo unspecified)
17%	-17%	3.2%	8	Cc1ccc(C(=O)Nc2ccc(Cl)cn2)cc1
nt	12%	-0.6%	nt	CSCCC(NC(=O)c1ccc([N+](=O)[O-])cc1Cl)C(=O)OCC(=O)N1CCN(C(C)=O)CC1 (stereo unspecified)
-23%	12%	-2.8%	-2	Cc1cc(C)c(C(=O)CN2C(=O)NC3(CCCCCC3)C2=O)cc1C
nt	11%	-1.1%	nt	CC(C)NC(=O)Nc1ccc2c(c1)C(=O)N([C@H](C)CO)C[C@H](C)[C@@H](CN(C)C(=O)Nc1ccc(C(F)(F)F)cc1)O2
0%	2%	0.1%	-1	O=C(O)c1cccc(NC(=O)c2ccc3c(c2)C(=O)N(CC2CCCO2)C3=O)c1 (stereo unspecified)
-29%	-9%	-3.7%	-4	COc1ccc(/C=C2\CCc3ccccc3C2=O)cc1Cn1cccn1
-8%	-6%	-1.8%	6	Nc1nc(NC(=O)Cc2ccccc2)nn1-c1ccccc1
1%	15%	-0.8%	3	Cc1n[nH]c(C)c1CCC(=O)N/N=C/c1c[nH]c2ccccc12
0%	-9%	-0.9%	6	O=C(CCS(=O)(=O)c1ccc(Br)cc1)NC1CCCC1
1%	-15%	8.9%	1	CCOCCCN(CCC#N)S(=O)(=O)c1ccc(S(=O)(=O)N2CCCC2)cc1

(listing goes on)
miR-21 reporter	Rango dissoc inh	Rango complex inh	GLA inh pH 4.5	canonical_smiles
-1%	16%	-2.3%	2	COc1ccccc1NC(=O)NCCCl
4%	7%	2.1%	5	Cc1ccnc(SCC(=O)O)n1
-36%	2%	-0.2%	0	CN(Cc1ccccc1)c1nc2c(c(=O)[nH]c(=O)n2C)n1CCOc1ccccc1
-8%	1%	1.0%	4	CCN(CC)CCNS(=O)(=O)c1ccc2[nH]cc(C(=O)O)c(=O)c2c1
nt	-9%	-6.8%	nt	CCCc1cc(=O)[nH]c(SCC(=O)Nc2cc(S(=O)(=O)N(CC)c3ccccc3)ccc2Cl)n1
-4%	0%	0.2%	nt	COc1ccc(S(=O)(=O)N2CCN(Cc3cccc(OC)c3)CC2)cc1
nt	19%	-1.5%	nt	COc1ccc(S(=O)(=O)N2CCCCC2)cc1NC(=O)CCCNC(=O)c1ccc(Cl)cc1
-7%	-1%	-0.1%	6	CC(=O)Nc1nc(Cn2nnc(-c3ccc4c(c3)OCO4)n2)nc(N(C)C)n1
4%	-10%	-1.2%	4	COc1cc2c(cc1OC)C(C)N(C(=S)NC(=O)c1ccccc1)CC2 (stereo unspecified)
-1%	-11%	0.0%	3	CCOC(=O)N1CCN(C(=O)CSc2ccc3nnc(-c4cccnc4)n3n2)CC1
nt	2%	-0.6%	nt	COC(=O)c1ccc(COC(=O)CSCC(=O)Nc2ccc(C)cc2C)cc1
nt	-9%	0.6%	nt	COc1ccc2nc(C)cc(N/N=C/c3ccccc3)c2c1

A different layout for 2 compounds above:
| canonical_smiles | miR-21 reporter | Rango dissoc inh | Rango complex inh | GLA inh pH 4.5 |
| --- | --- | --- | --- | --- |
| CCOC(=O)N1CCN(C(=O)CSc2ccc3nnc(-c4cccnc4)n3n2)CC1 | -1% | -11% | 0.0% | 3 |
| COC(=O)c1ccc(COC(=O)CSCC(=O)Nc2ccc(C)cc2C)cc1 | nt | 2% | -0.6% | nt |

(list continues)
miR-21 reporter	Rango dissoc inh	Rango complex inh	GLA inh pH 4.5	canonical_smiles
nt	-2%	-0.3%	nt	COc1ccc2[nH]cc(CCNC(=O)Cn3cc(C)c(=O)[nH]c3=O)c2c1
-6%	7%	-1.4%	-15	Cc1nc(SCC(=O)Nc2cc(Cl)ccc2[N+](=O)[O-])nc(C)c1C
-48%	1%	2.3%	nt	CCOC(=O)CC1COCCN1C(=O)c1ccc2oc(Cc3ccccc3)nc2c1 (stereo unspecified)
2%	2%	4.7%	0	CSc1nnc(-c2cc(Br)ccc2N=Cc2c(C)[nH]n(-c3ccccc3)c2=O)c(=O)[nH]1
-1%	1%	-0.7%	-3	COc1ccc(/C=N/NC(=O)Cn2cc(C(F)(F)F)ccc2=O)cc1
-3%	0%	-0.2%	nt	O=C(CN1CCN(S(=O)(=O)c2ccccc2)CC1)Nc1ccccc1Cl
-34%	-2%	-3.6%	4	Cc1ccc(C(=O)/C=C\NCc2ccccc2)cc1
-39%&-33%	-1%&-2%	-1.0%&-1.1%	2&-3	c1ccc2[nH]c(-c3ccnc4ccccc34)nc2c1
0%	2%	-1.9%	-15	O=C(Cn1cc(CCO)nn1)N1CCNCC1
20%	-10%	1.2%	0	Nc1cc(N2CCCC2)ccc1[N+](=O)[O-]
15%	5%	-4.9%	1	Cc1ccc(Sc2c([N+](=O)[O-])ncn2C)cc1
0%	3%	1.9%	11	N#Cc1ccc(-c2ccc(OCC(=O)NCCc3ccccc3)cc2)cc1

Seven compounds from above, sorted by molar mass, low to high.
miR-21 reporter	Rango dissoc inh	Rango complex inh	GLA inh pH 4.5	canonical_smiles
15%	5%	-4.9%	1	Cc1ccc(Sc2c([N+](=O)[O-])ncn2C)cc1
-34%	-2%	-3.6%	4	Cc1ccc(C(=O)/C=C\NCc2ccccc2)cc1
-1%	1%	-0.7%	-3	COc1ccc(/C=N/NC(=O)Cn2cc(C(F)(F)F)ccc2=O)cc1
-6%	7%	-1.4%	-15	Cc1nc(SCC(=O)Nc2cc(Cl)ccc2[N+](=O)[O-])nc(C)c1C
-3%	0%	-0.2%	nt	O=C(CN1CCN(S(=O)(=O)c2ccccc2)CC1)Nc1ccccc1Cl
-48%	1%	2.3%	nt	CCOC(=O)CC1COCCN1C(=O)c1ccc2oc(Cc3ccccc3)nc2c1 (stereo unspecified)
2%	2%	4.7%	0	CSc1nnc(-c2cc(Br)ccc2N=Cc2c(C)[nH]n(-c3ccccc3)c2=O)c(=O)[nH]1

Further records follow.
miR-21 reporter	Rango dissoc inh	Rango complex inh	GLA inh pH 4.5	canonical_smiles
0%	-15%	?	nt	COc1ccc(CS(=O)(=O)CC(C)(O)c2ccccc2)cc1 (stereo unspecified)
-5%	-3%	1.0%	nt	O=C(Nc1ccc(Oc2ccccc2)nc1)C1CCCCN1Cc1cccc(OCCO)c1 (stereo unspecified)
13%	15%	-0.3%	8	CCn1ncc(CN2CCN(C(=O)Nc3ccccc3C(=O)OC)CC2)c1C
-17%	?	?	-15	CCOC(=O)c1sc2nc3c(SCCC(=O)O)cc(C(=O)c4cc(OC)ccc4O)cn3c(=O)c2c1C
-13%	1%	-0.6%	nt	COc1ccccc1CNC(=O)COc1cccnc1[N+](=O)[O-]
1%	0%	-3.5%	nt	CCc1nc(C)c(C(=O)N2CCCC(C(=O)Nc3cccc(-c4cccc(C)c4)c3)C2)o1 (stereo unspecified)
-10%	1%	-0.1%	8	CCc1ccc(-c2csc3ncn(CC)c(=O)c23)cc1
1%	-2%	-0.1%	nt	COc1ccccc1-c1cc(C(=O)N/N=C/c2ccc(C)o2)c2ccccc2n1
-2%	-5%	0.3%	-16	CCOC(=O)c1sc(=NC(=O)COc2ccc(Cl)cc2)n(C)c1C
-21%	3%	2.6%	1	CCCSc1nsc(SCCC)c1C#N
-6%	-16%	1.0%	nt	Cn1c(SCC(=O)NNC(=O)c2ccccc2)nnc1C1CC1
-15%	19%	1.3%	0	CCC(CO)NCc1ccc(-c2ccccc2)cc1 (stereo unspecified)

(listing goes on)
miR-21 reporter	Rango dissoc inh	Rango complex inh	GLA inh pH 4.5	canonical_smiles
0%	1%	1.3%	-2	CCOC(=O)c1c(C)[nH]c(C(=O)COC(=O)/C=C/c2ccc3c(c2)OCO3)c1C
1%	1%	-1.5%	-6	CCOC(=O)N1CCC(NC(=O)C(NS(=O)(=O)c2ccc3c(c2)CCN3C(C)=O)C(C)C)CC1 (stereo unspecified)
0%	-9%	-3.6%	-3	COc1ccc(-c2nc(N)nc(C(F)(F)F)c2-c2csc(C)n2)c(O)c1
-1%	4%	-1.9%	nt	CN(C)c1nc(-c2cccnc2)nc(-c2ccccc2)c1C#N
-60%	2%	8.1%	2	CCOc1ccc(NC(=O)c2cccs2)c([N+](=O)[O-])c1
nt	7%	0.2%	nt	CC1(C)CC(=O)C=C(NCCCN2CCCC2=O)C1
1%	-1%	1.1%	-6	COC(=O)c1cc(=O)c2c(C)nc(C(Cl)(Cl)Cl)nc2[nH]1
-3%	14%	-3.1%	-1	Cn1nc(-c2ccccc2)c(CO)c1Oc1cccc(C(F)(F)F)c1
-2%	-7%	0.2%	6	COc1cccc(CN2CCN(Cc3ccc(C)o3)CC2CCO)c1 (stereo unspecified)
nt	-17%	?	nt	CC(OC(=O)CCc1nc2ccccc2c(=O)[nH]1)C(=O)Nc1cccc(C(F)(F)F)c1 (stereo unspecified)
1%	-14%	-2.9%	-1	OC1C[N+]2(CCCCC2)C1
-2%	10%	0.4%	nt	CCOc1ccc(NC(=O)CCNC(=O)c2ccco2)cc1

The listing continues.
miR-21 reporter	Rango dissoc inh	Rango complex inh	GLA inh pH 4.5	canonical_smiles
-38%	?	-0.7%	nt	Cc1ccc(CSCC(=O)N2CCCC2)cc1
nt	-10%	2.7%	nt	O=C(CSc1nnc2ccc(-c3ccccn3)nn12)NCCc1ccccc1
-4%	0%	-1.6%	3	COCc1cc(C)[nH]c(=O)c1C#N
1%	2%	-4.0%	4	COC(=O)C(Cc1cncn1COCc1ccccc1)NC(=O)OC(C)(C)C (stereo unspecified)
-53%	21%	8.8%	nt	CCCCNC(=O)c1cc(-c2ccc3c(c2)OCO3)on1
-32%	-12%	-5.2%	-4	CC1CCc2nc(NC(=O)Cc3cccs3)sc2C1 (stereo unspecified)
2%	-8%	0.1%	-12	CCC(=O)Nc1cc(OC)c(NC(=O)c2ccccc2)cc1OC
